GLA inh pH 4.5 – blocks human alpha-galactosidase A at pH 4.5; P06280; purified enzyme, 4-MU-alpha-Gal fluorescence, pH 4.5; activity change, negative = inhibition, % at 105 µM; 230,000 tested, under 10 active; AID 1467; inconclusive = small, poorly fitted or top-dose-only inhibition, or a rising curve; inactive = flat fitted curve, though single readings scatter; no compound was filed as active;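 also: 0% = full activity with enzyme and -100% = basal without enzyme; dose as in the result columns while the protocol names 77 µM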
Target sequence (P06280 whole entry, looked up): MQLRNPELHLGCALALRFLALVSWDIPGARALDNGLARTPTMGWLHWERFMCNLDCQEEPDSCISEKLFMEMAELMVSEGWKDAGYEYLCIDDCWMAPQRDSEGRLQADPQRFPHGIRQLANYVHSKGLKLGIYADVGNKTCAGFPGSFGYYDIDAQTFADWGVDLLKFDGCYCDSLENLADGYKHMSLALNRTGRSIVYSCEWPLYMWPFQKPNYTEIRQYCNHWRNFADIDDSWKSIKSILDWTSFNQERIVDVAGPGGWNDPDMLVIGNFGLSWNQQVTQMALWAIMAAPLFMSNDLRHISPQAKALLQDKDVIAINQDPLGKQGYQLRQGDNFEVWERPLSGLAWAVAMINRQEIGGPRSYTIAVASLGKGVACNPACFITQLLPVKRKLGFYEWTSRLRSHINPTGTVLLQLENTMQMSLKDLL
Rango release inh – inhibitors of RanGTP-induced Rango-importin beta complex dissociation. O95149+P62826. Biochemical FRET Rango-importin beta, RanGTP-induced dissociation. Potency, µM (highest dose often 46.1 µM), for the others: at the top dose activity change, negative = inhibition. 340,000 compounds, 0.071% hits. AID 540253; active means falling FRET ratio curve, often poorly fitted, with flat reads before Ran was added; inconclusive means other falling curves, or compound fluorescence or quenching; inactive means flat or rising ratio curve;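 also: potency is read from the fitted curve at half-maximal effect; % of control where 0% means no effect; nearly all actives have a fitted effect of over 45% in size; -100% = wells without RanGTP and RCC1; the record marks most hits as doubtful in a second field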
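FRET read at 45 min, room temperature: inhibitors block the CFP/YFP signal rise when RanGTP (0.6 uM Ran, 2 mM GTP, 0.2 uM RCC1) frees Rango (0.1 uM) from importin beta (0.25 uM). Pre-read after 5 min compound exposure flags interference.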
Rango-impB inh – inhibitors of Rango-importin beta complex formation; Q14974; Rango CFP/YFP FRET sensor + importin beta, 45 min; Potency, µM (titrated, usually from 92.2 µM), without a hit: at the top dose inhibition of complex formation; 340,000 compounds, 0.031% hits; AID 540263; active = rising FRET ratio curve, often small or poorly fitted; inconclusive = mostly compound fluorescence or quenching in the first reads; inactive = flat curves in all reads;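 also: potency is read from the fitted curve at half-maximal effect; 0% = DMSO wells and 100% = buffer wells lacking importin beta; nearly all actives have a fitted effect of over 15% in size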
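FRET biosensor (snurportin 1 IBB flanked by EYFP and cerulean), 50 nM, with compound 5 min, then 0.125 microM importin beta in PBS, 1 mM DTT, 0.02% Tween-20, 0.1% BSA. CFP/YFP ratio read after 45 min at room temperature; pre-read flags interference.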
miR-21 reporter – raises the signal of a miR-21 reporter; 340,000 tested, under 10 active; HeLa miR-21 FLuc reporter, luciferase, 48 h; Potency, µM (series often up to 38.3 µM), inactives show at the top dose reporter change, positive = more light; AID 2288; active = well fitted rising curve with a large enough effect; inconclusive = small, poorly fitted or top-dose-only effect; inactive = no such curve, though single readings can be large or run the other way;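 also: % of control where 0% means no effect; miR-21 action dims this reporter so a rising signal means less miR-21 action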
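Using DMEM plus 10% FBS, HeLa miR-21-FLuc cells are incubated with test compounds (final up to about 40uM) for 48 hours; firefly luciferase signal is then imaged following reagent-mediated lysis.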
* = called active by the depositor; u = inconclusive; x = not tested or not shown; & = joins results of further samples; [ ] = remark or other dose. These rows are one share of the data (hit frequency here may not be typical).

SMILES	GLA inh pH 4.5	Rango release inh	Rango-impB inh	miR-21 reporter
Cc1cccc(N(Cc2ccccc2)C(=O)c2cccc(S(=O)(=O)N3CC(C)OC(C)C3)c2)c1 (configuration not stated)	x	2%	-0.4%	x
Cc1ccc(C(=O)CN2C(=O)NC3(CCc4ccccc43)C2=O)s1 (configuration not stated)	x	-12%	3.6%	x
O=c1[nH]c(C2CCN(S(=O)(=O)c3ccc4c(c3)OCCO4)CC2)nc2c1nnn2Cc1cccc(F)c1	x	6%	-0.2%	-11%
CC1CN(N=Cc2ccc([N+](=O)[O-])o2)C(=N)O1 (configuration not stated)	x	-1%	-1.0%	x
O=C(NCCC1=CCCCC1)c1ccc(Cl)c(S(=O)(=O)N2CCOCC2)c1	-9	6%	2.6%	1%
CC1C=Cc2ccccc2N1C(=O)c1ccccc1 (configuration not stated)	2	2%	-1.0%	4%
CCOC(=O)c1ccc(NC(=O)N2C3CCCC2CC(NC(C)=O)C3)cc1 (configuration not stated)	x	6%	-2.2%	1%
N#Cc1c(-c2ccccc2)nc(N2CCOCC2)[nH]c1=O	-1	11%	0.0%	-1%
CC(=O)Nc1ccc(S(=O)(=O)NCCC(=O)N2CCN(C(c3ccccc3)c3ccccc3)CC2)cc1	x	10%	-4.0%	x
CCCc1nc(NC(C)=O)c(C#N)c(-c2ccco2)c1CC	4	-8%	-2.0%	-3%
CCOc1ccc2c(c1)-c1c(ssc1=S)C(C)(C)N2C(=O)CSC1=NCCS1	4	0%	1.0%	-4%
Cc1ncc(S(=O)(=O)c2ccc(Cl)cc2)c(N)n1	x	-14%	2.3%	x
O=S(=O)(Nc1cccc(S(=O)(=O)N2CCOCC2)c1)c1ccc(Cl)s1	-3	0%	4.1%	0%
O=C(/C=C/c1ccc(Cl)cc1)Nc1ccc(S(=O)(=O)Nc2ncccn2)cc1	-17	16%	4.1%	-7%
COC(=O)c1cc(=O)n(-c2ccccc2)c(=Nc2ccccc2)s1	2	1%	0.0%	8%
CCC(=O)c1c[nH]c(C(=O)NCC2CCCO2)c1 (configuration not stated)	-3	6%	-0.5%	-7%
CC(Cc1ccccc1)C(=O)N(C)Cc1ccccc1 (configuration not stated)	5&-1	-4%	0.4%	-6%
COc1cc(/C=C(\C#N)c2[nH]nc(N)c2C#N)cc(OC)c1O	-4	u	u	-6%
CC1(C)C(C=C(Cl)Cl)C1C(=O)N(Cc1ccc(Cl)cc1)C1CCS(=O)(=O)C1 (configuration not stated)	-26	u	3.7%	12%
O=C(c1cccs1)n1cc(C(=S)N2CCOCC2)c2ccccc21	6	-16%	-1.7%	-2%
C[C@@H]1CN(C(=O)c2nc3ccc(Cl)cn3c2CN[C@H]2CCCCNC2=O)C[C@H](C)O1	-2	-9%	-0.3%	-3%
O=C(Nc1cccc(S(=O)(=O)N2CCOCC2)c1)c1ccco1	1	-17%	0.0%	-6%
CC(=O)c1cc2c(cc1NS(=O)(=O)c1ccccc1F)OCO2	-5	-26%	0.5%	-1%
Cc1cccc2c(=O)c(-c3ccc(Cl)cc3)c(NC(=O)c3ccco3)oc12	x	u	3.1%	0%
CC1(C2CC(C(F)(F)F)n3nc(C(=O)O)cc3N2)CC1 (configuration not stated)	7	-13%	-0.5%	-1%
CC(C)c1ccc(NC(=O)CSc2n[nH]c(=O)n2-c2ccc3c(c2)OCCO3)cc1	6	0%	0.3%	-6%
COc1ccccc1CNC(=O)C1(NC(=O)Nc2ccc(C)cc2)CCCCC1	-6	-11%	0.3%	3%
CN(C)c1ccc(C=Nc2ccccc2C(N)=O)cc1	3	1%	u	8%
O=C(c1ccco1)N1CCN(Cc2nnc(-c3cccc(Cl)c3)o2)CC1	x	3%	-1.8%	-1%
Nc1nonc1NC(=O)NN=C1CCCCC1	-6	6%	0.5%	-8%
N#Cc1c(NC(=O)COC(=O)c2ccc(F)cc2)sc2c1CCC2	1	4%	3.1%	1%
Cc1ccc(N(CC(=O)NC(C)(C)C)C(=O)CNC(=O)c2cccs2)c(C)c1	4	26%	0.4%	-1%
Cc1ccc2nc(SCc3nc4c(cnn4-c4ccccc4)c(=O)[nH]3)[nH]c2c1	-4	10%	-0.2%	8%
COc1ccc(-n2c(SCC(=O)Nc3cc(C)on3)nc3c([nH]c4ccccc43)c2=O)cc1OC	x	7%	-1.4%	3%
CCCC(=O)Nc1ccc(C(=O)NCC2CCCO2)cc1 (configuration not stated)	1	10%	-0.5%	-4%
Cc1cccc(NC(=O)c2ccoc2C)n1	-1	-11%	-0.4%	-36%
CNc1ccc(Br)cc(C(=O)/C=C/c2cccc(OC)c2OC)c1=O	2	6%	4.1%	-11%
COc1ccc(/C(N)=N/OC(=O)Cc2ccccc2OC)cc1	-19	17%	-3.1%	-48%
CCc1ccc(/C(C)=N/Nc2cc(Cl)nc(C)n2)cc1	-9	-26%	-1.4%	-8%
O=C(CCN=C1NS(=O)(=O)c2ccccc21)OCC(=O)c1ccc(F)c(F)c1	x	-2%	1.9%	x
O=C(Nc1ccncc1)OCc1ccccc1	x	-6%	-2.3%	7%
N#CCN1CCN(CCC(=O)Nc2ccc(OCc3ccccc3)cc2)CC1	2	-21%	4.2%	-19%
CCCNC(=O)OC[C@H]1O[C@H](CCO/N=C/c2ccc(C(=O)N3[C@H](c4ccc(C)cc4)[C@@H](C)CC[C@H]3C(=O)OC)cc2)C=C[C@@H]1Oc1ccc(OC)cc1	-3	x	x	-1%
CCOCCCNC(=O)c1cc2c(s1)-c1ccccc1SC2	x	4%	1.8%	-29%
Cc1ccc(C)c(-c2cc(C(=O)Nc3nccs3)c3ccccc3n2)c1	-3	1%	-0.6%	19%
CC(C)n1c(O)c(/C=C2\C=NN=C2c2ccccc2)sc1=S	8	0%	0.7%	-2%
O=C(NC1CCCCC1)c1ccc2[nH]c(=O)c(=O)[nH]c2c1	x	-9%	0.7%	0%
Cc1cccc(-c2nnc(SCC#N)n2-c2cccc(Cl)c2)c1	-1	-7%	4.4%	-9%
COc1ccc(CNC(=O)C23CN(Cc4ccccc4)CC2C(c2ccc([N+](=O)[O-])cc2)=NO3)cc1 (configuration not stated)	-4	-24%	-1.1%	10%
CC1(C)CC2CC(C)(CN2Cc2cccc([N+](=O)[O-])c2)C1 (configuration not stated)	x	0%	-3.0%	7%
COC(=O)c1[nH]c2cccc(OC)c2c1NC(=O)CCN1CCN(c2cccc(Cl)c2)CC1	-2	x	x	21%
CN(C)CCN(C(=O)c1ccc(S(=O)(=O)N2CCc3ccccc32)cc1)c1nc2ccc(F)cc2s1	x	-1%	-2.5%	-22%
Cc1ccc(N2CCN(S(=O)(=O)c3ccc(Cl)s3)CC2C)cc1 (configuration not stated)	x	5%	-2.2%	5%
COc1ccc(CCn2c(SCCN3CCCCC3)nc3ccccc3c2=O)cc1OC	-10	1%	1.4%	-1%
CCOc1ccc(C(=O)COC(=O)C2COc3ccccc3O2)cc1 (configuration not stated)	x	7%	-1.2%	x
Cc1ccc(N(CC(=O)NC2CCCCC2)C(=O)CCC(=O)Nc2nccs2)cc1	x	0%	-2.3%	-3%
Cc1ccc(S(=O)(=O)N/N=C/c2ccc(OS(=O)(=O)c3ccc(C)c([N+](=O)[O-])c3)cc2)cc1	-10	2%	-0.2%	2%
O=c1cc(-c2ccc(O)c(O)c2)oc2c1ccc1ccccc12	x	0%	u	x
COc1ccc(C2CCCN2C(=O)Nc2ccc(Cl)cc2)cc1OC (configuration not stated)	-9	7%	1.0%	-19%
CC(C)Oc1ccc(NC(=O)Oc2ccccc2)cc1	-8	-10%	1.9%	-5%

Looked up by structure from above, 2 records:
SMILES	GLA inh pH 4.5	Rango release inh	Rango-impB inh	miR-21 reporter
CCOc1ccc(C(=O)COC(=O)C2COc3ccccc3O2)cc1 (configuration not stated)	x	7%	-1.2%	x
Cc1ccc(C)c(-c2cc(C(=O)Nc3nccs3)c3ccccc3n2)c1	-3	1%	-0.6%	19%

New compounds follow
SMILES	GLA inh pH 4.5	Rango release inh	Rango-impB inh	miR-21 reporter
COc1cc2c(cc1OC)-c1cc(Nc3ccc(C)cc3)nc(=O)n1CC2	x	14%	-2.3%	-23%
C=C1CC[C@@H]2[C@](C)(CO)[C@H](O)CC[C@@]2(C)[C@@H]1C/C=C1/C(=O)OCC1O (some centres not stated)	x	4%	-1.7%	x
CCOC(=O)CSc1nc2cccnc2n1C	-1	0%	0.7%	0%
COc1cc(CCC(=O)Nc2c(C(=O)N3CCN(c4ccccc4)CC3)oc3ccccc23)on1	x	-3%	1.2%	6%
CCOC(=O)N1CCN(C(=O)CSc2nc3c(cnn3-c3ccccc3)c(=O)[nH]2)CC1	-7	-6%	-1.7%	2%
CCCN(C(=O)Cc1nc(N)n[nH]1)C1(C(=O)Nc2ccccc2C)CCCCC1	4	11%	1.4%	-2%
COCC(=O)N(CCN(C)C)Cc1cc2cc3c(cc2nc1Cl)OCO3	1	-7%	-4.0%	-1%
CC(=O)Nc1sc2c(c1-c1nc3ccccc3s1)CN(C(C)C)CC2	x	u	u	x
Cc1ccc2c(cnn2C(=O)CCC(=O)NCc2cccc(Br)c2)c1	x	16%	-0.5%	1%
O=C(Cc1cccc(C(F)(F)F)c1)NCc1cccc(Cl)c1	-9	2%	0.3%	-7%
COc1ccc(-c2[nH]ncc2CN2CCCO2)cc1F	6	-2%	0.2%	-1%
COc1ccc(C(=O)O/N=C(\N)c2ccccc2)cc1OC	x	-1%	-0.5%	-63%
C[C@H](NC(=O)[C@@H]1CSC2c3ccccc3C(=O)N21)C(=O)NCCc1ccccc1 (some centres not stated)	x	-1%	-3.5%	-39%
Cn1c(O)c(N=NC(=O)c2cccc(S(=O)(=O)N3CCCCC3)c2)c2ccccc21	-8	1%	0.1%	-3%
O=C(N/N=C/c1c[nH]c2ccccc12)c1ccccc1Cl	x	25%	-1.5%	-17%
COc1cc(CN2CCC(n3nccc3NC(=O)C3CCOC3)CC2)ccc1F (configuration not stated)	x	9%	-0.2%	-1%
Cc1ccccc1OCC(=O)NCCNC(=O)c1ccncc1	x	11%	0.2%	2%
CN1CCN(CC(=O)Nc2c(C#N)cnn2-c2ccccc2)CC1	9	-2%	-0.2%	-4%
N/C(=N\N=C\c1ccc(O)cc1)c1nonc1N	-12[21.1 µM]	-4%	2.8%	-49%
CN(C)c1ccc(NC(=O)c2cccc(C(=O)Nc3ccc(N(C)C)cc3)n2)cc1	-2	4%	3.1%	8%

Structures above with bromine:
SMILES	GLA inh pH 4.5	Rango release inh	Rango-impB inh	miR-21 reporter
CNc1ccc(Br)cc(C(=O)/C=C/c2cccc(OC)c2OC)c1=O	2	6%	4.1%	-11%
Cc1ccc2c(cnn2C(=O)CCC(=O)NCc2cccc(Br)c2)c1	x	16%	-0.5%	1%

Going on with the list.
SMILES	GLA inh pH 4.5	Rango release inh	Rango-impB inh	miR-21 reporter
Cc1cc(C)n2nc(-c3ccc(Cl)cc3)cc2n1	x	-7%	4.4%	-63%
CCN(CC)CCCNC(=S)N(Cc1cccnc1)Cc1cc2cc(C)cc(C)c2[nH]c1=O	-12	-3%	2.2%	8%
CC(=O)Nc1ccc(C(=O)OCCc2ccccc2)cc1	x	1%	3.8%	-13%
COc1ccc(NC(=S)Nc2ccc(Oc3ccccc3)cc2)cc1	6	-18%	1.6%	15%
CC(=O)n1cc([C@H]2C=C(C(=O)N3CCOCC3)O[C@@H](OCCCCO)C2)c2ccccc21	x	-19%	-1.8%	x
NC(=O)N/N=C/c1cn(CC(=O)Nc2ccc(F)cc2)c2ccccc12	2	-2%	0.3%	-8%
CC(=O)c1ccc(N(CC(=O)NCC2CCCO2)C(=O)CCC(=O)Nc2cc(C)on2)cc1 (configuration not stated)	x	-5%	-0.2%	1%
Cc1ccc(-c2nc(CS(=O)CC(=O)NCCC(C)C)c(C)o2)cc1 (configuration not stated)	-18	-16%	5.1%	-6%
Cn1cc(-c2nnnn2-c2ccc(Cl)cc2)c(=O)c2ccccc21	3	-1%	-3.3%	-1%
CC(C)CNc1nc(Oc2ccc(=O)n(-c3ccccc3)n2)nc(N2CCOCC2)n1	3	-13%	5.3%	-7%
C=CCNC(=O)c1ccc(NC(=O)CC2SC(N3CCCC3)=NC2=O)cc1 (configuration not stated)	x	-18%	2.9%	x

High-throughput results from PubChem BioAssay.
